# MT1-MMP reporter = inhibitors of MT1-MMP promoter transcription, cell-based, luciferase reporter, luminescence (AID 618). 87,000 tested, 0.62% active. MT1-MMP promoter luciferase reporter cells, luminescence. calls from a first round at 10 µM; hits with a dose series show EC50 in µM;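 active = over half of the reporter light lost at 10 µM or EC50 under 50 µM; inactive = the rest and hits that failed the dose series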;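 also: actives suppress MT1-MMP promoter-driven transcription so potencies describe inhibitors; HT1080 fibrosarcoma cells; overnight exposure; toxic or luciferase-blocking compounds were not removed from the actives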
# Starred values were filed as active, the others as inactive; i = inactive. A portion of the library; count on the stated rates, not on these rows.
nr	smiles	MT1-MMP reporter
1	O=C(NCC1CC1)[C@@H]1C[C@H]1[C@@H](NP(=O)(c1ccccc1)c1ccccc1)c1ccccc1	i
2	COC(=O)C1=C(C)N(CCCC(=O)O)C(=O)NC1c1ccc(C(F)(F)F)cc1 (stereo not drawn)	i
3	COc1ccccc1CNC(=O)c1cccc(N(C)C)c1	i
4	O=C(Nc1ccccc1)N1CCN(c2ccc(C(F)(F)F)cn2)CC1	i
5	O=C1NNC(=O)C2C3C=CC(C4CC34)C12 (stereo not drawn)	i
6	C=CCn1c(SCCOc2ccc(OC)cc2)nnc1C(CO)NC(=O)c1ccc(OC)cc1 (stereo not drawn)	i
7	O=C(NC(NC(=O)c1ccccc1)c1ccccc1)c1ccccc1	i
8	CCSc1ccccc1C(=O)NCc1ccco1	i
9	COc1ccc(-c2nc(CSCC(=O)NC3CCCc4ccccc43)c(C)o2)cc1 (stereo not drawn)	i
10	Cc1ccc(C)c(N2CCN(C(=O)Cn3c(=O)[nH]c4ccsc4c3=O)CC2)c1	i
11	COCCN=C1OC(=O)N2C(=O)C3=C4[C@@H](C[C@H]5C(=O)N(c6ccccc6)C(=O)[C@H]5[C@H]4[C@@]12Cc1ccccc1)[C@H]1C(=O)N(c2ccccc2)C(=O)[C@H]1[C@H]3C	i
12	CC1CCC(NC(=O)Nc2cccs2)CC1 (stereo not drawn)	i
13	CC1(C)NC(=O)N(CCOCCOc2c(Cl)cc(Cl)cc2Cl)C1=O	i
14	COC(=O)CC1Oc2cc3oc4c5ccccc5oc(=O)c4c3cc2O1 (stereo not drawn)	i
15	COC(=O)[C@@]1(Cc2ccccc2)[C@H]2c3cc(C(=O)N(C)C)n(Cc4cc(C)n(C)n4)c3C[C@H]2CN1C(=O)c1ccccc1	i
16	COc1ccc(C2Nc3ccccc3C(=O)N2Cc2ccco2)cc1COc1ccc([N+](=O)[O-])cc1 (stereo not drawn)	i
17	CC(C)Cn1c(N)c(C(=O)COC(=O)c2cc(-c3ccccc3)nc3ccccc23)c(=O)n(C)c1=O	i
18	COc1ccc(NC(=O)C(c2ccccc2)N(C)C(=O)CNC(C)=O)cc1 (stereo not drawn)	i
19	Cc1ccc(CC(=O)NC(C)CCc2ccccc2)cc1 (stereo not drawn)	i
20	CCN(CC)c1nc(Nc2ccccc2)nc(Oc2ccc(C(=O)OC)cc2)n1	i
21	COc1ccc(NC(=O)CSc2nc(N)c(C(=O)Nc3ccc(N(C)C)cc3)s2)cc1	i
22	FC(F)(F)c1ccc(C2[C@H]3CN(Cc4ccc(-c5ccccc5)cc4)[C@H](c4ccccc4)C34CC2(c2ccccc2)C4)cc1 (stereo partly drawn)	i
23	CCCCCCN(C(=O)CCCCCN1C(=O)NC(c2ccc(-c3ccccc3)cc2)C(C(=O)OCc2ccccc2)=C1C)C(C(=O)NCCCC)c1ccc(OCC(=O)OC)cc1 (stereo not drawn)	i
24	CCC/C=C(\CCC)C(NS(=O)(=O)c1ccc(Cl)cc1)c1ccccc1 (stereo not drawn)	i
25	O=C(NCCO)NC(=S)c1ccccc1	i
26	CCC1CCCCN1C(=O)CSc1nc2ccsc2c(=O)n1Cc1ccccc1 (stereo not drawn)	i
27	OCCN(Cc1ccccc1)Cc1ccc(Cl)cc1	i
28	CCOC(=O)c1ccc(NC(=O)c2ccc(CO)c(C(=O)NC3CCN(C(=O)OCC)CC3)c2)cc1	i
29	C[C@@H](C(=O)N[C@@H](CO)Cc1ccccc1)[C@@H]1C[C@@]1(C)[C@@H](NC(=O)OCc1ccccc1)c1ccccc1	i
30	CCCC(=NCc1ccccc1)C1=C(O)C(C(=O)OC)C(C)(C)CC1=O (stereo not drawn)	i
31	CC(C)(C)C(=O)Nc1cccc(C(=O)c2cccc(NC(=O)C(C)(C)C)c2)c1	i
32	CCOC(=O)N1CCN(C(=S)NCCOC)CC1	i
33	CN(C)S(=O)(=O)n1ccnc1	i
34	O=C(CSc1nc2ccccc2c(=O)n1NC(=O)c1ccccc1)c1ccccc1	i
35	C/C(=C\C(=O)c1ccc(Br)cc1)NCc1ccccc1	i
36	CCOc1cc(C(=S)N2CCCCC2)ccc1OCC(=O)NCc1ccccc1	i
37	COc1cc(S(=O)(=O)N(C)C)ccc1Br	i
38	O=C(CCc1nc(-c2ccccc2)c(-c2ccccc2)o1)OCc1ccc(Br)cc1	i
39	CC(O)CN(Cc1ccc(Cl)cc1)CC(C)O (stereo not drawn)	i
40	CC(C)CCNC(=O)CC1Nc2c3ccccc3nc(=S)n2C1=O (stereo not drawn)	i
41	CCCC/C=C/C(NC(=O)Oc1cccc(C(F)(F)F)c1)c1ccccc1 (stereo not drawn)	i
42	CC(C)CC(NC(=O)C1CCC(C)CC1)C(=O)NCc1ccccn1 (stereo not drawn)	i
43	O=c1ccc(/C=C/c2ccccc2)nn1Cc1ccccc1	i
44	C[C@H](CO)NC(=O)[C@@H]1C[C@H]1[C@@H](NP(=O)(c1ccccc1)c1ccccc1)c1ccccc1	i
45	CCc1c(C)nc2cc(C)[nH]n2c1=O	i
46	O=C(N/N=C/c1cccs1)C1COc2ccccc2O1 (stereo not drawn)	i
47	Cc1cc(C)c2nc(SCCc3ccccc3)nc(C)c2c1	i
48	COc1ccc(OC)c(/C(O)=C/C(=O)C(=O)Nc2cc(C)cc(C)c2)c1	i
49	CCOC(=O)C1=C(C)N(CCCC(=O)O)C(=O)NC1c1cccc(OC)c1 (stereo not drawn)	i
50	CC(Sc1ccc(Cl)cc1)C(=O)NCC1CCCO1 (stereo not drawn)	i

# Carrying on:
nr	smiles	MT1-MMP reporter
51	COC(=O)[C@@]1(Cc2ccc(OC)cc2)[C@H]2c3cc(C(=O)N4CCCC4)n(Cc4nc5ccccc5[nH]4)c3C[C@H]2CN1C(=O)c1ccccc1	i
52	COC(=O)c1sccc1NC(=O)c1cc(OC)c(OC)c(OC)c1	i
53	CC1CCC(C(=O)NC(C(=O)NCc2ccccn2)C(C)C)CC1 (stereo not drawn)	i
54	Cn1c(N)c(C(=O)COC(=O)c2cc(-c3ccccc3)nc3ccccc23)c(=O)n(Cc2ccccc2)c1=O	i
55	c1ccc2c(COn3nnc4ccccc43)cccc2c1	i
56	COC(=O)c1ccc(C(NC(=O)OCc2ccccc2)/C(F)=C/[C@@H](C)C(=O)NC2CCCCC2)cc1 (stereo partly drawn)	i
57	COc1cccc(OC)c1C(=O)NC(=S)Nc1ccc2c(c1)Cc1ccccc1-2	i
58	COc1ccc(CCN2C(=O)C3C4C=CC(C3C2=O)C2C(=O)N(CCc3ccc(OC)c(OC)c3)C(=O)C42)cc1OC (stereo not drawn)	i
59	COCCCNC(=O)c1ccc(Cn2c(=O)c3ccccc3n(Cc3ccc(C)cc3)c2=O)cc1	i
60	O=C(NCC1CCCO1)C1CCC(=O)N1Cc1ccc(F)cc1 (stereo not drawn)	i
61	COC(=O)[C@@H]1C[C@H]2CC[C@H](O)C[C@H]2N1Cc1c(F)cccc1Cl	i
62	Cc1ccc(/C=C/C(=O)Nc2cc(C)on2)cc1	i
63	COc1cc2c(C(=O)N3CCN(c4cccc(Cl)c4)CC3)cn(CC(C)C)c(=O)c2cc1OC	i
64	COC(=O)c1scc(C)c1NC(=O)C1CCCCC1	i
65	CCOC(=O)C1CCCCN1Cc1ccc(F)cc1 (stereo not drawn)	i
66	CCCCNC(=O)CSc1nc2ccsc2c(=O)n1C1CCN(C(=O)OCC)CC1	i
67	O=C(CC(O)(C(F)(F)F)C(F)(F)F)Nc1ccc(Cl)c(Cl)c1	i
68	CC(C)OCC(O)CS(=O)(=O)Cc1ccccc1 (stereo not drawn)	i
69	Nc1cc(=O)nc(SCC(=O)NCc2ccccc2)n1CCc1ccccc1	i
70	Cc1ccccc1N/C(SCc1ccc(Cl)cc1)=C(/C#N)C(=O)NCc1ccco1	i
71	Cc1cc(C)c2nc(N3CCCC(C(=O)NCCCN4CCOCC4)C3)sc2c1 (stereo not drawn)	i
72	Cc1ccc(-n2nc(C)c(NS(=O)(=O)c3ccccc3)c2C)cc1C	i
73	Cc1ccc(NC(=O)CCSCCC(=O)Nc2ccc(C)c(C)c2)cc1C	i
74	CCC1=C(OC(=O)N(CC)CC)N2C(=O)OC(=NCC(=O)OC)[C@]2(C)[C@H]2C1=CC[C@H]1C(=O)N(CC(=O)OC)C(=O)[C@H]12	i
75	CCOc1ccc(CNC(=O)CCCOc2cc(=O)n(C)c3ccccc23)cc1	i
76	CCN(CC)CCOc1ccc2c(c1)C(=NO)c1cc(OCCN(CC)CC)ccc1-2	i
77	Cc1ccc(C(=O)CC(=O)c2cc(Cl)ccc2O)cc1	i
78	Cn1cnnc1SCC(=O)c1ccc2c(c1)OCO2	i
79	CC(C)NS(=O)(=O)c1ccc(OCC(=O)N2CCCC2)c(Cl)c1	i
80	CCC1=C(OC(=O)N(CC)CC)N2C(=O)OC(=NCCOC)[C@]2(Cc2ccccc2)[C@H]2C1=CC[C@H]1C(=O)N(C)C(=O)[C@H]12	i
81	COc1ccc(-n2c(N)c(C(=O)NCc3ccco3)sc2=S)cc1	i
82	CCCC1=Nc2cc(C(=O)NCCCOC(C)C)ccc2Sc2ccccc21	i
83	CC1=C(C(=O)OCc2ccccc2)C(c2ccc(-c3ccccc3)cc2)NC(=O)N1CCCCCC(=O)O (stereo not drawn)	i
84	Cc1cc(C)c(S(=O)(=O)N2CCC(C(=O)NCc3ccco3)CC2)c(C)c1	i
85	COC(=O)c1ccc(Sc2ccc(Cl)cc2)c(N)c1	i
86	CCN=C(NCC)SC1CC(=O)N(c2ccc(OC)cc2)C1=O (stereo not drawn)	i
87	Cc1ccccc1NC(=O)Cc1cn(C)c2ccccc12	i
88	Cc1ccc(-n2c(CCc3ccccc3)nnc2SCC(=O)NCc2ccccc2)cc1C	i
89	CCCC[C@@H]1C[C@H]1C(NC(=O)c1cccs1)c1ccc(Cl)cc1 (stereo partly drawn)	i
90	CC1=C(C(=O)OCc2ccccc2)C(c2cccc(Cl)c2Cl)NC(=O)N1CCCCCC(=O)O (stereo not drawn)	i
91	COn1c2c(c3c4no[n+]([O-])c4ccc31)CCCC2	i
92	Cc1ccc(C)n1-c1ccc(N2CCOCC2)c(Br)c1	i
93	O=c1c2cc(N3CCOCC3)ccc2[nH]c(=S)n1Cc1cccc(Cl)c1	i
94	COc1cc(CNn2cnnc2)ccc1OCC(=O)NC1CCCCC1	i
95	CC(=O)N1CC=CC1(CC(C)C)C(=O)O (stereo not drawn)	i
96	Cc1cc2c(n1-c1ccc(Cl)cc1)CC(C)(C)CC2=O	i
97	O=c1oc2ccccc2c(Nc2cccc3ccccc23)c1[N+](=O)[O-]	i
98	O=C(CN1CCN(Cc2ccc(Cl)cc2)C1=O)NCCCN1CCN(c2ccc(F)cc2)CC1	i
99	NC(=NC1CCCCC1)c1ccc([N+](=O)[O-])cc1	i
100	CCC1=C2CC[C@H]3C(=O)N(CC(=O)OC)C(=O)[C@H]3[C@H]2[C@@]2(Cc3ccccc3)C(=NCCc3c[nH]c4ccccc34)OC(=O)N2C1=O	i

# Reformatted: entries from further up
97. O=c1oc2ccccc2c(Nc2cccc3ccccc23)c1[N+](=O)[O-]
  MT1-MMP reporter: i

98. O=C(CN1CCN(Cc2ccc(Cl)cc2)C1=O)NCCCN1CCN(c2ccc(F)cc2)CC1
  MT1-MMP reporter: i

# New compounds follow
nr	smiles	MT1-MMP reporter
101	O=C(CN1CC(c2ccccc2)CC1=O)OCc1cccc(Br)c1 (stereo not drawn)	i
102	O=[n+]1cc(-c2cccc3ccccc23)n([O-])c2c1CCC2	i
103	COC(=O)[C@@]1(Cc2ccc(OC)cc2)[C@H]2c3cc(C(=O)N4CCCC4)n(CCN4CCNC4=O)c3C[C@H]2CN1C(=O)c1ccccc1	i
104	CCCC[C@@H]1C[C@H]1C(NC(=O)c1ccccc1)c1ccc(C(=O)OC)cc1 (stereo partly drawn)	i
105	CCC1=C2CC[C@H]3C(=O)N(C)C(=O)[C@H]3[C@H]2[C@@]2(Cc3ccccc3)C(=NCCc3c[nH]c4ccccc34)OC(=O)N2C1=O	i
106	O=C1Nc2cc(Cl)c(Cl)cc2N(O)N1c1ccccc1	i
107	COC(=O)C1=C(C)N(CCCC(=O)O)C(=O)NC1c1ccc2c(c1)OCO2 (stereo not drawn)	i
108	COc1cccc(CNC(=O)c2cnc(-c3ccccn3)nc2C(F)(F)F)c1	i
109	COc1ccc2nc(SCC(=O)Nc3c(C)cccc3C)[nH]c2c1	i
110	O=C(COc1ccc(CO)cc1Cl)Nc1ccc(F)cc1	3µM*
111	CS(=O)(=O)Nc1ccc(C(=O)N2CCN(c3ccccc3)CC2)cc1	i
112	CCCCN(CC)CCCNC(=O)C1c2ccccc2C(=O)N(C)C1c1cn(C)c2ccccc12 (stereo not drawn)	i
113	COC(=O)C1=C(C)N(CCCC(=O)O)C(=O)NC1c1ccccc1Cl (stereo not drawn)	i

# Structures shown so far with fluorine, in the order listed:
nr	smiles	MT1-MMP reporter
2	COC(=O)C1=C(C)N(CCCC(=O)O)C(=O)NC1c1ccc(C(F)(F)F)cc1 (stereo not drawn)	i
4	O=C(Nc1ccccc1)N1CCN(c2ccc(C(F)(F)F)cn2)CC1	i
22	FC(F)(F)c1ccc(C2[C@H]3CN(Cc4ccc(-c5ccccc5)cc4)[C@H](c4ccccc4)C34CC2(c2ccccc2)C4)cc1 (stereo partly drawn)	i
41	CCCC/C=C/C(NC(=O)Oc1cccc(C(F)(F)F)c1)c1ccccc1 (stereo not drawn)	i
56	COC(=O)c1ccc(C(NC(=O)OCc2ccccc2)/C(F)=C/[C@@H](C)C(=O)NC2CCCCC2)cc1 (stereo partly drawn)	i
60	O=C(NCC1CCCO1)C1CCC(=O)N1Cc1ccc(F)cc1 (stereo not drawn)	i
61	COC(=O)[C@@H]1C[C@H]2CC[C@H](O)C[C@H]2N1Cc1c(F)cccc1Cl	i
65	CCOC(=O)C1CCCCN1Cc1ccc(F)cc1 (stereo not drawn)	i
67	O=C(CC(O)(C(F)(F)F)C(F)(F)F)Nc1ccc(Cl)c(Cl)c1	i
98	O=C(CN1CCN(Cc2ccc(Cl)cc2)C1=O)NCCCN1CCN(c2ccc(F)cc2)CC1	i
108	COc1cccc(CNC(=O)c2cnc(-c3ccccn3)nc2C(F)(F)F)c1	i
110	O=C(COc1ccc(CO)cc1Cl)Nc1ccc(F)cc1	3µM*

# Screening data deposited in PubChem by Sanford-Burnham Center for Chemical Genomics.
